DUX4 txn inh: inhibitors of DUX4-driven ZSCAN4 reporter expression, primary screen, 293T cells, Gaussia and Italica luciferase; 293T-iDUX4 ZSCAN4-Gaussia luciferase reporter, 24 h; hits give low values; activity change, negative = inhibition, % (test concentration not listed); 37,000 compounds, 0.8% hits; AID 1224904, 2016;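 active = -10% or lower and over 25 points stronger than a control reporter; inconclusive = -10% or lower with a smaller gap; inactive = above -10%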;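 also: 0% = median of neutral control wells and -100% = median of positive control wells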
DUX4 txn inh difference: second read-out of DUX4 txn inh, no call of its own (marks repeat the call); Gaussia minus Italica difference, %; measured here: selective DUX4 reporter inhibition;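 worked out from the two reporters; negative = selective loss of the DUX4 reporter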
DUX4 txn inh control: further read-out of DUX4 txn inh, marked with its call; activity change, negative = inhibition, %; measured here: Italica tet-on control reporter;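 0 = neutral control and -100 = positive control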
* = called active by the depositor; ? = inconclusive; nt = no result given. This is a subset (hit frequency here may not be typical).

Values run as follows: DUX4 txn inh	DUX4 txn inh control	DUX4 txn inh difference
CO[C@@H]1CN(C)C(=O)c2cc(NC(=O)c3ccc4c(c3)OCO4)ccc2OC[C@H](C)N(CCC(F)(F)F)C[C@H]1C
  ?	nt	nt
COCC#Cc1ccc2c(c1)O[C@@H](CN(C)Cc1ccccc1F)[C@H](C)CN([C@H](C)CO)S2(=O)=O
  -1.0	0.5	-1.5
O=C(Nc1ccccc1F)N1C[C@H]2[C@@H](c3ccccc31)[C@@H](CO)N2C(=O)c1ccccn1
  2.8	2.7	0.1
O=C(C1CCCC1)N1CC2(C1)[C@H](c1ccccc1)[C@@H](CO)N2C(=O)CC1CC1
  7.4	6.2	1.2
CN(C)C(=O)C[C@@H]1CC[C@H]2[C@@H](COc3ccc(NC(=O)Nc4cccc(Cl)c4)cc3C(=O)N2C)O1
  -0.6	-2.2	1.6
CN(C)C(=O)C[C@H]1CC[C@H]2[C@H](COc3ccc(NC(=O)Nc4cccc(Cl)c4)cc3C(=O)N2C)O1
  -2.2	-1.5	-0.7
CCCNC(=O)C[C@H]1CC[C@@H]2[C@H](COc3ccc(NC(=O)Nc4ccccc4F)cc3C(=O)N2C)O1
  -2.5	7.0	-9.5
CCS(=O)(=O)N1CCC2(CC1)CN(C(=O)Nc1c(C)noc1C)[C@@H](CO)c1c2c2ccc(OC)cc2n1C
  14.6	-1.1	15.7
COc1ccccc1-c1cccc(-c2nc(C(=O)Nc3nccs3)cc3c2[C@H](CCO)N(C(=O)CC2CC2)C3)c1
  -4.9	1.5	-6.4
CN1CCCCN2[C@H](C1)[C@H](c1ccc(-c3ccc(F)cc3)cc1)[C@@H]2CO
  19.3	14.4	4.9
CN(C)C(=O)C[C@H]1C[C@@H]2c3cc(NC(=O)c4cccnc4)ccc3O[C@@H]2[C@H](CO)O1
  2.8	1.2	1.6
C[C@H]1CN([C@@H](C)CO)C(=O)CCCn2cc(nn2)CO[C@@H]1CN(C)S(=O)(=O)c1ccc2c(c1)OCCCO2
  -2.8	-3.2	0.5
O=C(C[C@@H]1CC[C@@H]2[C@H](COC[C@@H](O)CN2Cc2cccc(-c3ccncc3)c2)O1)N1CCOCC1
  ?	nt	nt
COc1ccc(OC(=O)N(C)C[C@H]2OCc3cn(nn3)CCCC(=O)N([C@@H](C)CO)C[C@H]2C)cc1
  -1.9	-3.1	1.2
Cc1ccc(S(=O)(=O)N2CC[C@@H]3[C@H](CO)Nc4ccc(Br)cc4[C@@H]32)cc1
  9.1	1.4	7.7
CN(C)C(=O)c1cccc(-c2ccc3n(c2=O)C[C@H]2[C@H](CO)[C@@H](C(=O)NCC4CC4)N[C@@H]32)c1
  -0.5	2.4	-2.9
C/C=C/c1ccc([C@@H]2[C@H](CO)N3CCCCN(C(=O)Nc4cc(F)ccc4F)C[C@@H]23)cc1
  2.5	7.9	-5.3
CCC(=O)Nc1ccc2c(c1)OC[C@@H](C)N(C(=O)c1ccncc1)C[C@H](C)[C@H](OC)CN(C)C2=O
  1.8	1.8	0.0
CCS(=O)(=O)Nc1ccc2c(c1)C(=O)N(C)[C@@H]1CC[C@@H](CC(=O)N[C@@H]3CCN(Cc4ccccc4)C3)O[C@H]1CO2
  -2.8	2.1	-4.9
COc1ccc2c3c(n(C)c2c1)[C@@H](CO)N(CC1CC1)CC31CN(C(=O)Nc2c(C)noc2C)C1
  9.3	0.4	8.8
CC(C)(C)[S@@](=O)N1Cc2cc(C(=O)NCCN3CCCC3)nc(-c3cccc(-c4ccc(C#N)cc4)c3)c2[C@H]1CCO
  0.4	1.9	-1.5
COc1ccc2c3c([nH]c2c1)[C@H](CO)N(C(=O)Cc1ccccc1)CC31CN(C(=O)Cc2ccccc2)C1
  -6.6	1.9	-8.6
C[C@H](C(=O)N(C)C[C@@H]1OCc2ccccc2-c2ccccc2C(=O)N([C@@H](C)CO)C[C@H]1C)c1ccccc1
  3.2	8.1	-4.9
CCC(=O)N1CC(=O)N2[C@@H](CO)[C@@H](c3ccc(-c4ccccc4F)cc3)[C@@H]2C1
  1.3	-4.2	5.5
O=C(Nc1ccc(F)cc1)N1C[C@@H]2[C@H](c3ccccc31)[C@@H](CO)N2C(=O)c1ccccc1
  0.1	4.2	-4.1
CN1C(=O)c2cc(NS(C)(=O)=O)ccc2OC[C@@H]2O[C@@H](CC(=O)O)CC[C@@H]21
  4.1	-8.5	12.5
CO[C@@H]1CC[C@@H]2CCOc3ccc(C#N)cc3C(=O)N(C)C[C@@H](OC)[C@@H](C)C(=O)N(C)C[C@H]1O2
  -1.4	-1.6	0.2
CC(C)CC#Cc1ccc([C@H]2[C@H](CO)N3C(=O)CN(S(=O)(=O)c4ccccc4)C[C@@H]23)cc1
  4.4	12.5	-8.1
COCC(=O)N1[C@H](CO)[C@H](c2ccccc2)C12CN(C(=O)c1ccc(F)cc1)C2
  -3.6	-0.2	-3.4
COc1ccc(NC(=O)N(C)C[C@@H]2OCCCC[C@H](C)Oc3ccc(NC(=O)c4ccncc4)cc3C(=O)N([C@H](C)CO)C[C@@H]2C)cc1
  4.0	4.1	-0.1
CCCC(=O)Nc1ccc2c(c1)OC[C@H](C)NC[C@H](C)[C@@H](OC)CN(C)C2=O
  4.8	0.1	4.7
CO[C@H]1CN(C)C(=O)c2cc(NC(=O)NC(C)C)ccc2OC[C@H](C)N(C(=O)C2CCC2)C[C@@H]1C
  -1.2	2.1	-3.3
CC(=O)N1[C@@H]2Cn3c(ccc(-c4ccccc4)c3=O)[C@H]1[C@@H](C(=O)N1CCCCC1)[C@@H]2CO
  3.4	5.0	-1.5
Cc1noc(C)c1NC(=O)N(C)C[C@H]1OCCCC[C@H](C)Oc2ccc(NC(=O)c3ccncc3)cc2C(=O)N([C@H](C)CO)C[C@@H]1C
  5.0	0.2	4.8
C[C@H]1CN([C@@H](C)CO)C(=O)c2cc(NC(=O)Nc3cccc4ccccc34)ccc2O[C@H]1CN(C)C(=O)NC1CCCCC1
  -1.1	-2.1	1.0
CC(C)C#Cc1ccc([C@H]2[C@@H](CO)N3C(=O)CN(C(=O)Cc4ccccc4)C[C@@H]23)cc1
  6.5	6.7	-0.2
O=C(C[C@@H]1C[C@H]2c3cc(NC(=O)CC4CC4)ccc3O[C@H]2[C@H](CO)O1)NCc1ccccn1
  0.7	2.4	-1.6
C[C@H](NC(=O)[C@@H]1N[C@@H]2c3ccc(C4=CCCCC4)c(=O)n3C[C@@H]2[C@H]1CO)c1ccccc1
  9.2	8.6	0.6
C[C@H](NC(=O)C[C@H]1C[C@H]2c3cc(NS(C)(=O)=O)ccc3O[C@H]2[C@@H](CO)O1)c1ccccc1
  0.2	3.2	-3.1
CC(C)[C@H](C)NC(=O)N(C)C[C@H]1OCc2ccccc2-c2c(n(C)c3ccccc23)C(=O)N([C@H](C)CO)C[C@H]1C
  4.9	2.6	2.3
O=C(C1CCOCC1)N1CC[C@@H]2[C@H]1c1cc(-c3cccc(F)c3)ccc1N[C@@H]2CO
  6.1	0.2	5.9
CN1C(=O)c2cc(NC(=O)Cc3cccs3)ccc2OC[C@H]2O[C@@H](CC(=O)NCCc3ccncc3)CC[C@H]21
  5.0	-8.7	13.7
O=C(C[C@@H]1CC[C@@H]2[C@H](COC[C@H](O)CN2C(=O)c2cccnc2)O1)NC1Cc2ccccc2C1
  3.7	-3.7	7.4
CCCC#Cc1ccc([C@H]2[C@@H](CO)N3CCCCN(C(=O)c4ccc5c(c4)OCO5)C[C@H]23)cc1
  ?	nt	nt
C[C@@H]1CN([C@@H](C)CO)C(=O)c2c(c3ccccc3n2C)-c2ccccc2CO[C@@H]1CN(C)Cc1ccc(-c2ccccc2)cc1
  12.7	0.7	12.0
O=C(NC1CCCC1)N1CCCCN2[C@H](CO)[C@H](c3ccc(-c4ccccc4)cc3)[C@@H]2C1
  3.8	11.7	-7.9
CC(=O)N1CCCCN2[C@H](C1)[C@H](c1ccc(-c3ccncc3)cc1)[C@@H]2CO
  16.1	12.8	3.3
CCCC#Cc1ccc([C@@H]2[C@@H](CO)N3C(=O)CN(S(=O)(=O)c4ccccc4C)C[C@H]23)cc1
  ?	nt	nt
CN1C(=O)c2cc(NC(=O)Nc3ccccc3Cl)ccc2OC[C@H]2O[C@H](CC(=O)O)CC[C@H]21
  -2.0	0.9	-2.9
O=C(CCN1CCCCC1)NCC[C@@H]1CC[C@@H](NC(=O)C2CCOCC2)[C@@H](CO)O1
  4.6	3.6	1.0

Quoted at random: four compounds from above, in no set order.
Values run as follows: DUX4 txn inh	DUX4 txn inh control	DUX4 txn inh difference
CCCC#Cc1ccc([C@H]2[C@@H](CO)N3CCCCN(C(=O)c4ccc5c(c4)OCO5)C[C@H]23)cc1
  ?	nt	nt
O=C(C[C@@H]1CC[C@@H]2[C@H](COC[C@H](O)CN2C(=O)c2cccnc2)O1)NC1Cc2ccccc2C1
  3.7	-3.7	7.4
CN1C(=O)c2cc(NC(=O)Nc3ccccc3Cl)ccc2OC[C@H]2O[C@H](CC(=O)O)CC[C@H]21
  -2.0	0.9	-2.9
CCCC#Cc1ccc([C@@H]2[C@@H](CO)N3C(=O)CN(S(=O)(=O)c4ccccc4C)C[C@H]23)cc1
  ?	nt	nt

Continued.
Values run as follows: DUX4 txn inh	DUX4 txn inh control	DUX4 txn inh difference
C[C@@H]1CN([C@@H](C)CO)C(=O)c2cccc(NC(=O)NC3CCCCC3)c2O[C@@H]1CN(C)Cc1ccc(C(F)(F)F)cc1
  -1.9	1.7	-3.6
COC(=O)C[C@@H]1CC[C@H]2[C@@H](COC[C@H](O)CN2C(=O)Nc2ccccc2OC)O1
  7.6	4.9	2.7
COc1cccc(NC(=O)N[C@H]2C=C[C@H](CC(=O)Nc3ccc(-c4ccccc4)cc3)O[C@@H]2CO)c1
  ?	nt	nt
CC(C)NC(=O)NCC[C@@H]1CC[C@@H](NS(=O)(=O)c2ccc(Oc3ccccc3)cc2)[C@H](CO)O1
  -7.4	1.1	-8.4
COc1ccc2c3c(n(C)c2c1)[C@@H](CO)N(C(=O)C1CCCCC1)CC31CCN(C)CC1
  0.5	2.0	-1.5
C[C@@H]1CCCCO[C@H](CN(C)C(=O)Nc2cccc3ccccc23)[C@@H](C)CN([C@H](C)CO)C(=O)c2cc(NS(=O)(=O)c3cn(C)cn3)ccc2O1
  -0.5	0.6	-1.1
CC(=O)N1CC2(C1)[C@H](c1ccc(-c3ccc(C#N)cc3)cc1)[C@@H](CO)N2CCC(F)(F)F
  10.1	8.9	1.2
COc1ccccc1CN1C[C@@H]2N[C@H](C1)C2c1ccc(-c2ccccc2)cc1 (stereo partly specified)
  -45.8*	-9.8*	-36.0*
N#C[C@H]1N[C@H](CO)[C@H]1c1ccc(C#CC2CCCC2)cc1
  1.8	0.4	1.4
C[C@@H]1CN([C@@H](C)CO)C(=O)c2cc(NS(=O)(=O)c3cccs3)ccc2O[C@@H](C)CCCCO[C@H]1CN(C)C(=O)c1ccncc1
  3.1	-0.8	3.9
C[C@@H]1CN([C@@H](C)CO)S(=O)(=O)c2ccc(C#C[C@@H](C)O)cc2O[C@@H]1CN(C)Cc1ccc(-c2ccccc2)cc1
  -0.3	-0.6	0.2
C[C@H](CO)N1C[C@H](C)[C@@H](CN(C)C(=O)Nc2ccccc2)Oc2ccc(NS(=O)(=O)c3ccc(F)cc3)cc2C1=O
  5.1	3.5	1.6
COc1cc(CN2CC3(CCN(C(=O)Nc4c(C)noc4C)CC3)c3c(n(C)c4cc(OC)ccc34)[C@@H]2CO)cc(OC)c1
  -5.4	-3.4	-2.1
COCC(=O)N(C)C[C@H]1Oc2cc(C#CC(C)(C)O)ccc2S(=O)(=O)N([C@@H](C)CO)C[C@H]1C
  0.8	1.2	-0.4
CN1C(=O)c2cc(NC(=O)c3cnccn3)ccc2OC[C@@H]2O[C@H](CC(=O)N[C@@H]3CCN(Cc4ccccc4)C3)CC[C@@H]21
  -5.0	-3.8	-1.1
C/C=C/c1ccc([C@@H]2[C@@H](CO)N(C(C)=O)[C@H]2CN(CC)C(=O)CN(C)C)cc1
  0.6	3.1	-2.5
COc1ccc(NC(=O)Nc2ccc3c(c2)[C@@H]2C[C@H](CC(=O)NCC4CC4)O[C@@H](CO)[C@@H]2O3)cc1
  2.1	-4.0	6.0
O=C([C@@H]1[C@@H](CO)[C@@H]2Cn3c(ccc(C4=CCCCC4)c3=O)[C@H]1N2Cc1nccs1)N1CCCCC1
  0.4	-4.7	5.1
CC(=O)NC[C@@H]1[C@@H](c2ccc(-c3cccnc3)cc2)[C@@H](CO)N1C(=O)CC1CC1
  -4.8	-1.4	-3.3
CC(C)NC(=O)N1C[C@@H]2[C@H](c3ccccc31)[C@@H](CO)N2C(=O)c1ccc(F)cc1
  -5.4	-2.8	-2.7
Cn1cnc(S(=O)(=O)N2CCCCN3[C@@H](CO)[C@@H](c4ccc(-c5cccc(F)c5)cc4)[C@@H]3C2)c1
  -1.8	-7.4	5.7
COCC(=O)N1CC2(C1)[C@H](c1ccccc1)[C@@H](CO)N2C(=O)c1ccncc1
  0.4	6.7	-6.3

Source: PubChem BioAssay (Broad Institute)
